# PrP UTR inh = inhibition of PrP 5' UTR reporter expression; cell-based PrP 5' UTR mRNA reporter, plate reader; inhibition, % (concentration not given with the values); actives 0.35% (n = 340,000); AID 488862, 2010;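 active = every replicate at 50% or more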;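 note: 0 = median of the neutral control wells; tested in H4 reporter cells; numbers are from one replicate; inactives centre near -14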
# BJeLR lethal = MLPCN primary cell-based screen for lethality selective to Ras in HRASV12 cells | actives 0.17% (n = 300,000) | BJeLR (HRASV12) viability, CellTiter-Glo ATP luminescence, 48 h; reference of the scale not given here | inhibition, % (concentration not given with the values);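 active = replicate mean above 50%; inconclusive = above 50% but judged a plate artefact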;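 note: 50 nL library stock added to about 25 µL; numbers are from one replicate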
# Sa ugtP lethal = growth inhibition of ugtP-null S. aureus, primary screen, RN4220 ugtP deletion, OD600; growth inhibition, % (test concentration not listed); actives 0.54% (n = 330,000); 16 h; some inactives read as strong as hits;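 active = z-score under -3 and OD600 up to 0.15 on both plates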;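 note: plate controls were untreated wells for no effect and antibiotic for full effect; wells of about 80 µL received 100 nL stock; the first replicate is given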
# Sa RN4220 lethal = growth inhibition of S. aureus RN4220, primary screen, OD600; 16 h; inhibition, % (no concentration beside the values); actives 0.33% (n = 330,000);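 active = z-score of -3 or lower and OD600 up to 0.18 on both plates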;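 note: plate controls were untreated cells for no effect and reference antibiotic for full effect; stock transfer was 100 nL into about 80 µL; one replicate is shown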
# Bead autofluor = flagged as autofluorescent in microsphere protease counterscreen; compound autofluorescence counterscreen, microsphere flow cytometry; hits give high values; fluorescence intensity (no concentration beside the values); actives 3.1% (n = 360,000); AID 624483;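 active = at least 3 SD above the mean of all compounds, about 16000 in these data; inconclusive = too few beads counted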;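 note: 100 nL of 1 mM stock went into each well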
# Mtb hypoxia rep = PubChem AID 1159583; M. tuberculosis hypoxia-regulated fluorescent reporter, fluorescence; actives 0.1% (n = 300,000); fluorescence inhibition, % (test concentration not listed);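 active = 35 to 45% if threefold the growth effect, above 45% if 1.5-fold the growth effect; inactive = the rest, general growth blockers included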;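 note: wells of about 50 µL received 100 nL stock; 0% = vehicle wells and 100% = reference inhibitor wells; whole bacteria with a GFP reporter of the hypoxia response; strong numbers were not always called active; many hits fall short of the cut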
# Mtb hypoxia rep growth = recorded beside Mtb hypoxia rep, whose call it bears; growth inhibition, %; measured here: M. tuberculosis growth (absorbance);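 0% = vehicle and 100% = reference antibiotic; read after six days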
# Numbers without * were called inactive; ? = inconclusive; nt = no result given.
# Every second line gives: PrP UTR inh, BJeLR lethal, Sa ugtP lethal, Sa RN4220 lethal, Bead autofluor, Mtb hypoxia rep, Mtb hypoxia rep growth
COc1cc(C(=O)NNC(=O)c2n[nH]c3ccccc23)cc(OC)c1OC
→ -24, nt, 2, 2.0, 4239, 7, 10
CCOC(=O)C1(CCCc2ccccc2)CCN(C(=O)C2CCCO2)CC1 (configuration not stated)
→ -16, 4, -1, 5.7, 4578, 21, 14
COc1cc(NC(C)=O)ccc1NC(=O)c1cc2ccccc2o1
→ -30, -17, 4, 0.2, 3203, 6, 2
O=c1[nH]cnc2scc(C3COc4ccccc4O3)c12 (configuration not stated)
→ -2, -5, 1, 6.3, 3126, nt, nt
Cc1nc(-c2ccc(Cl)cc2)sc1C(=O)NN
→ -11, 2, -22, 10, 3678, 0, 10
CSc1ccccc1-n1nnnc1SCC(=O)NCc1cccs1
→ -5, -3, 6, -2.0, 5236, nt, nt
COc1ccc(OC)c(Nc2nc(-c3cccc([N+](=O)[O-])c3)nc3ccccc23)c1
→ -30, 2, -5, -2.6, 25968*, 9, 10
O=C(COc1cccnc1[N+](=O)[O-])Nc1ccc(Cl)cc1F
→ -47, nt, 9, 2.1, 4023, 10, 7
CC(=NNC(=O)c1c[nH]c2ccccc12)c1ccccn1
→ nt, nt, -1, -1.3, nt, 0, 8
COc1cccc(/C=N/NC(=O)CN2C(=O)NC3NC(=O)NC32)c1 (configuration not stated)
→ -19, 15, nt, nt, 8879, nt, nt
O=C(Nc1ccccc1Cl)Oc1ccc(Cl)cc1Cl
→ -17, 1, nt, nt, 3424, nt, nt
Cc1cccc(C)c1NC(=O)Nc1ccc(S(N)(=O)=O)cc1
→ -5, -6, 3, 0.5, 4231, 3, -1
CCOc1ccc(CCNC(=O)c2cc3ccccn3n2)cc1OCC
→ -8, 12, -8, -12, 6270, 3, 11
COC(=O)c1cc(C(=O)N(Cc2ccccc2)c2ccccn2)cc([N+](=O)[O-])c1
→ -29, 5, 10, 0.3, 2084, 3, -4
CC(=O)NC(Cc1c[nH]c2ccccc12)C(=O)N/N=C/c1ccccc1 (configuration not stated)
→ -9, 2, nt, nt, 3283, nt, nt
COCCn1c(SCC(=O)Nc2cc(C)on2)nnc1-c1ccccc1
→ -24, -2, 4, 0.7, 4258, 2, -3
O=[N+]([O-])c1ccc(C=NNc2nc(N3CCCCC3)nc(N3CCCCC3)n2)o1
→ nt, nt, 4, 13, nt, nt, nt
O=C1CCCC2=C1C(c1cn(-c3ccccc3)nc1-c1cccs1)c1c([nH]c(=O)[nH]c1=O)N2 (configuration not stated)
→ -13, -13, 0, 1.9, 10971, 9, 9
CCCN=C1NC(=O)C(CC(=O)NCCc2ccccc2)S1 (configuration not stated)
→ -20, 4, 5, 8.6, 2291, -1, 4
COc1ccc(N(CC(=O)NCc2ccco2)C(=O)CCC(=O)Nc2nccs2)cc1
→ -31, -2, -4, 3.7, 6049, -1, -4
COc1ccc(/C=C(/NC(=O)c2ccc(C)cc2)c2nc3ccccc3[nH]2)cc1OC
→ -6, 9, 6, -1.5, 2742, nt, nt
CC1CCCN(C(=O)c2cc(N3C(=O)C4C5CCC(C5)C4C3=O)ccc2Cl)C1 (configuration not stated)
→ nt, -12, 2, -0.6, nt, 8, -5
Cc1nc2ccc(F)cc2cc1C(=O)NCc1ccco1
→ -24, -11, 0, 0.9, 6753, 18, 17
Cc1ccc(C(=O)Nc2cccc(-c3ccc(N4CCOCC4)nn3)c2)cc1C
→ -41, -6, 1, -0.2, ?, 7, 5
O=C(O)c1ccc(NC(=S)Nc2ccc(S(=O)(=O)Nc3ccccn3)cc2)cc1
→ -15, nt, 4, 3.8, 2997, 8, 16
COCc1cc(=O)n2c([nH]c3ccccc32)c1C#N
→ -20, 0, 3, 12, 8951, 11, 8
CCOC(=O)c1ccccc1OCc1cc(/C=N/NC(=O)c2cccnc2)ccc1OC
→ -9, -1, nt, nt, 4333, nt, nt
CN(C)C(=NS(=O)(=O)c1ccc(Br)cc1)c1ccccc1
→ nt, nt, -8, -3.2, nt, -9, 7
CCOC(=O)CCC(C)=NN=C1SC(CC(=O)O)C(=O)N1c1ccccc1 (configuration not stated)
→ nt, nt, -1, 5.1, nt, 8, 10
CCc1ccc(CNC(=O)CCc2cn(C)c3ccccc23)cc1
→ -7, 9, -3, 5.9, 3888, 1, 7

# No new results follow: two of the compounds above.
# Every second line gives: PrP UTR inh, BJeLR lethal, Sa ugtP lethal, Sa RN4220 lethal, Bead autofluor, Mtb hypoxia rep, Mtb hypoxia rep growth
CCOC(=O)CCC(C)=NN=C1SC(CC(=O)O)C(=O)N1c1ccccc1 (configuration not stated)
→ nt, nt, -1, 5.1, nt, 8, 10
CCc1ccc(CNC(=O)CCc2cn(C)c3ccccc23)cc1
→ -7, 9, -3, 5.9, 3888, 1, 7

# Next part.
# Every second line gives: PrP UTR inh, BJeLR lethal, Sa ugtP lethal, Sa RN4220 lethal, Bead autofluor, Mtb hypoxia rep, Mtb hypoxia rep growth
O=C(N/N=C1\C2CN3CCN(C2)CC1(c1ccccc1)C3)Nc1ccccc1
→ -6, 8, nt, nt, 4651, nt, nt
CN(CC(=O)Nc1ccc(F)cc1)C(=O)COC(=O)c1ccc(=O)n(Cc2ccccc2)n1
→ -9, nt, 4, 3.0, 3685, 8, 12
CCCCc1n[nH]c2c1/C(=N/O)CC(C)(C)C2
→ -10, 6, nt, nt, 4781, nt, nt
CCC(C)NC(=O)[C@H]1N2C(=O)c3ccccc3C2SC1(C)C (some centres not stated)
→ -12, -5, 0, 2.5, 3667, 1, -5
Cc1cc(NC(=O)CSc2nc3cc(Cl)ccc3c(=O)n2C(C)C)no1
→ -3, nt, 0, 1.5, ?, -1, -5
COC(=O)c1ccc(Cc2ccccc2)o1
→ -21, -11, 0, 4.9, 2451, 6, 9
Cc1cc2n(n1)C(c1sccc1C)Nc1ccccc1-2 (configuration not stated)
→ -18, nt, -23, 1.0, ?, 1, -7
O=C1C2C3C=CC(O3)C2C(=O)N1CC(O)c1ccccc1 (configuration not stated)
→ -19, -1, -7, -7.6, 3215, 0, 2
CN1/C(=C\C(=O)COc2ccc3c(c2)OCO3)C(C)(C)c2ccccc21
→ -3, 2, 10, -5.7, 3431, nt, nt
CCOC(=O)Cc1cc(=O)n2[nH]c(-c3ccc(C)cc3)cc2n1
→ -19, 4, 21, 0.4, 11908, 14, 2
CC(=O)c1c(C)[nH]c(C(=O)OCC(=O)NCCC2=CCCCC2)c1C
→ 16, 16, -5, 0.9, 4260, -3, 1
O=C(CN1C(=O)NC2(CCCC2)C1=O)Nc1nc2c(F)cc(F)cc2s1
→ -31, 7, 9, 3.3, 5766, 0, 0
O=C(Nc1ccnn1C1CCN(C(=O)c2ccccc2C(F)(F)F)CC1)C1CC1
→ 6, -1, 4, 3.6, 5914, 6, 13
CCOC(=O)N1CCN(C(=O)COC(=O)Cc2ccc(Cl)cc2)CC1
→ -12, 5, 4, 0.2, 5618, 3, 7
CC(C)NC(=S)NC(=O)/C=C/c1cccc2ccccc12
→ -40, -12, 16, 2.2, 1991, 1, 4
CCOC(=O)Cc1csc(NC(=O)CSc2nnc(-c3ccc(C)cc3)o2)n1
→ 4, -10, -13, 7.3, 7722, 3, 4
CCNC(=S)NNC(=O)c1cccs1
→ -15, 3, -3, 5.0, 2477, 4, 7
Cc1ccc(S(=O)(=O)NCCC(C)C)cc1[N+](=O)[O-]
→ -8, -3, 2, 3.0, 2533, 5, 4
COC(=O)C1=CN(C2CC2)C=C(C(=O)OC)C1c1ccccc1OC
→ -17, -8, -8, -9.1, 3278, 4, 10
Cc1ccc(CSCC(=O)N2CCN(c3ccc(F)cc3)CC2)cc1
→ 19, -16, 1, 4.8, 10821, 1, 3
OCCNC(=S)Nc1ccc(Oc2ccccc2)cc1
→ -22, 0, 8, 4.2, 2826, 7, 0
COC(=O)c1c(NC(=O)c2ccnn2C)sc(C)c1C
→ -19, 6, 4, 8.4, 2596, nt, nt
CCCc1ccccc1OCCNC(=O)c1cc(=O)n(C)c(=O)n1C
→ -47, 3, 4, 2.4, 3247, 6, 2
O=C(NC1CCCC1)C(Cc1ccccc1)n1cccc1 (configuration not stated)
→ 1, 11, 1, -14, 5407, 0, 5
CCc1nn(C(C)C(=O)N(C)Cc2ccccc2)c(=O)c2cc3occc3n12 (configuration not stated)
→ 9, -1, -1, 4.0, 6083, 5, 16
CC[C@@]1(C(=O)OC)N[C@H](CN(C)S(=O)(=O)c2ccc(C(F)(F)F)cc2)[C@@H]2C(=O)N(C)C(=O)[C@@H]21
→ -15, nt, 4, 3.0, 3341, 6, 10
O=C(CN1C(=O)NC2(CCSC2)C1=O)NCc1ccccc1 (configuration not stated)
→ 22, 3, 3, 2.1, 3235, 11, 0
O=C(NCC1CCCO1)/C(=C/c1cn(-c2ccccc2)nc1-c1cccnc1)NC(=O)c1ccccc1 (configuration not stated)
→ -23, 8, -1, -3.9, 4338, 0, 1
CC(=O)c1cccc([N+](=O)[O-])c1
→ -12, nt, 6, 2.4, 4131, 2, 7
CCC(NC(=O)c1ccccc1NC(=O)c1ccco1)C(=O)O (configuration not stated)
→ 3, nt, -3, 4.0, 2110, nt, nt
COC(=O)c1ccc2c(=O)n(Cc3ccco3)c(SCC(=O)Nc3ccc(C)c(Cl)c3)nc2c1
→ -17, 17, 0, 7.2, 23373*, 5, 1
COc1cc(C=C(NC(=O)c2ccccc2)C(=O)Nc2cccc(O)c2)c([N+](=O)[O-])cc1OC
→ nt, nt, -1, 5.0, nt, 3, 10
COc1cccc(C(=O)Nc2ccc(Oc3cccc(C(F)(F)F)c3)nc2)c1
→ -55, 6, 44, -5.1, 6395, 9, -1
CCN1C(=O)C2C(c3ccc(C)cc3)N3C(=O)N(c4cccc(F)c4)C(=O)[C@@]3(Cc3ccc(Cl)cc3)C2C1=O (some centres not stated)
→ nt, nt, 1, 4.5, nt, 16, 6
CCOC(=O)CON1C(=O)c2ccccc2C1=O
→ -9, 3, 2, 1.2, 2568, 8, 12
O=c1[nH]c(=O)c2[nH]c(=O)n(-c3ccccc3)c2[nH]1
→ 4, nt, 5, 2.4, 3033, 5, 6
Cc1ccsc1CNCc1cc(Cl)ccc1O
→ -30, nt, 1, 8.1, 2849, 18, 12
CCCNC(=O)CN1C(=O)NC(CC)(c2ccc(F)cc2)C1=O (configuration not stated)
→ -18, 1, 6, 3.0, 5840, 4, -2
Cc1cccc(S(=O)(=O)Nc2nc3ccccc3nc2NCc2ccco2)c1
→ -14, 1, -13, 8.0, 3043, -3, -4
CCCc1cc(=O)[nH]c(N/N=C/C=C\c2ccccc2)n1
→ -11, 3, nt, nt, 4386, nt, nt
O=S(=O)(c1cccs1)N1CCN(c2ccccc2Cl)CC1
→ -6, 7, 17, 6.8, 5062, 0, -1
CSCCC(NC(=O)c1ccccc1)C(=O)N1CC=C(c2ccccc2)CC1 (configuration not stated)
→ 2, 11, 3, 0.0, 5599, 1, 7
CNC(=O)COC(=O)/C=C/c1cn(-c2ccccc2)nc1-c1ccc(C)o1
→ -23, 2, -5, 17, 6163, 19, 5
Nc1nc(NCCCN2CCOCC2)nc(Nc2cccc(Cl)c2)c1[N+](=O)[O-]
→ 5, -11, -6, 1.4, 6065, 5, 4
CC(C)NC(=O)c1c(CSc2ccc(Cl)cc2)noc1C(=O)NCc1ccccc1
→ -34, 2, -28, -4.6, 4207, 13, 7
Cc1ccc(N2CC(C(=O)OCC(=O)Nc3cccc(Cl)c3C)CC2=O)cc1 (configuration not stated)
→ -14, nt, 11, 10, ?, 1, -3
COc1cccc(C(=O)NNC2=CC(=O)CC(C)(C)C2)c1
→ -29, 8, 0, 0.0, 20933*, 7, 5
CCOC(=O)C1=C(N)Oc2cc(O)ccc2C1c1ccc([N+](=O)[O-])cc1 (configuration not stated)
→ -16, 3, -12, -15, 3515, -8, 3
CCc1ccccc1N(C(=O)c1snc(C(N)=O)c1N)C(C(=O)NCC1CCCO1)c1c[nH]c2ccccc12 (configuration not stated)
→ -8, 11, -10, 7.2, 3693, 3, 8
COc1ccc(S(=O)(=O)N2CCc3ccccc32)cc1C(=O)N1CCC(C)CC1
→ 44, nt, 4, 4.5, 4118, -10, -5
CCc1nnc(NC(=O)CCS(=O)(=O)Cc2ccccc2)s1
→ -7, 8, 0, 0.2, 3917, 8, -3
Cn1cccc1/C=N/NC(=O)c1ccc[n+]([O-])c1
→ -11, 0, nt, nt, 4413, nt, nt
Cn1c(=O)oc2cc(S(=O)(=O)Nc3cccc4c3CCCC4)ccc21
→ -6, -4, -8, 7.2, 4332, 6, 10
NC(=O)Nn1c(CCC(=O)O)ccc1-c1ccc(Cl)cc1
→ -24, 9, 12, 3.0, 4082, 0, 5
